MbtI inh = MbtI salicylate synthase inhibitors, primary screen, biochemical, fluorescence intensity. P9WFX0. purified MbtI enzyme, fluorescence intensity read-out. inhibition, %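 (about 17 µg/mL by stock and volumes)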. hit rate 0.89% among 100,000. AID 493033, 2011;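 active means above 50% in both replicates, above 80% if mildly self-fluorescent; inactive means the rest, strongly fluorescent compounds included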;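 further: 0% = mean of negative and 100% = mean of positive controls; one replicate is shown; some compounds called inactive have numbers as strong as hits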
Target sequence (P9WFX0 whole entry, looked up): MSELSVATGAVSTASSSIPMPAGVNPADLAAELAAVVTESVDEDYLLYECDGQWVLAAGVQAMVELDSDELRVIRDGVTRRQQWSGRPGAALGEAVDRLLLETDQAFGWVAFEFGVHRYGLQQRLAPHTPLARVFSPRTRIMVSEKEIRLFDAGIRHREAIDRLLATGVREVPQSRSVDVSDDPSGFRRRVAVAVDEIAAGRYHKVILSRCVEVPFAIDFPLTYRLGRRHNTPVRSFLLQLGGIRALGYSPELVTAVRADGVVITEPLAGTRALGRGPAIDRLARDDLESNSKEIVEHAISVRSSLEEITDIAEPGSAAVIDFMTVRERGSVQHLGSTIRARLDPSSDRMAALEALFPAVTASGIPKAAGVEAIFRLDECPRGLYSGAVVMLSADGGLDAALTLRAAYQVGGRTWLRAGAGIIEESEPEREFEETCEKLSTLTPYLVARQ
MenB inh = M. tuberculosis MenB inhibitors, primary screen, biochemical, absorbance. 1,4-dihydroxy-2-naphthoyl-CoA synthase (Mycobacterium tuberculosis (strain ATCC 25618 / …. MenB enzyme assay, absorbance read-out; some hits fall short of the stated cut. inhibition, %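 (about 12 µg/mL by stock and volumes)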. hit rate 0.43% among 100,000. AID 540299, 2011;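 active means mean of two replicates above 30%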;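 further: 0% = no compound and 100% = wells with inactive enzyme; the first replicate is given; strong numbers were not always called active; inactives centre near -10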
Target sequence (P9WNP5 whole entry, looked up): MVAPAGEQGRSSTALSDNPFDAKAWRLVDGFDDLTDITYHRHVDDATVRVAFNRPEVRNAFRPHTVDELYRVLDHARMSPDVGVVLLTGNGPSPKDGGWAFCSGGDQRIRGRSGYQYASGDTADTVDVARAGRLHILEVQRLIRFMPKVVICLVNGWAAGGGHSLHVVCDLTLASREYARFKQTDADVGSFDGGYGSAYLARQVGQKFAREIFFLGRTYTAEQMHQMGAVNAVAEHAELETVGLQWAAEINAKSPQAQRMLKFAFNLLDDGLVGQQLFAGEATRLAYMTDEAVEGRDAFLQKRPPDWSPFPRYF
PV pol inh = poliovirus RdRp elongation inhibitors, primary screen, biochemical, fluorescence polarization, total intensity. Genome polyprotein (Poliovirus type 1 (strain Mahoney)), P03300. poliovirus polymerase elongation; stronger effect = lower value. % elongation, % (compound at 16.7 µg/mL). hit rate 0.66% among 150,000. AID 588519, 2011; in the data active means % elongation below about 90%; further: some results filed as inactive read as strong as hits
PV pol inh intensity = second read-out of PV pol inh, no call of its own (marks repeat the call); % elongation; measured here: total intensity read-out; formula for this scale not given here;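 total fluorescence in place of polarization; lower means less elongation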
Active calls of the source: *; nt = no result given.

SMILES | MbtI inh | MenB inh | PV pol inh | PV pol inh intensity
CN(C(=O)CSc1nc(-c2cccs2)cc(C(F)(F)F)n1)c1ccccc1 | 18 | 4 | 99 | 100
Cc1ccc2nc(-c3ccc(NC(=O)Nc4ccccc4)cc3)sc2c1 | nt | -2 | 108 | 117
CCOC(=O)N1CCN(C(=O)CSc2nc(=O)n3ccc(C)cc3n2)CC1 | -3 | -29 | 100 | 101
COC(C)(OCCn1c2ccccc2c2ccccc21)c1ccccc1 (configuration not stated) | nt | -1 | 107 | 111
CC(C)(C)NS(=O)(=O)c1ccccc1 | -12 | nt | 103 | 103
CCC(C(=O)Nc1c(C)cccc1C)n1c(C(=O)OC)cc2sc(C)cc21 (configuration not stated) | -6 | -31 | 102 | 100
CC(C)OC(C)n1cccc1-c1ccccc1 (configuration not stated) | nt | -23 | 108 | 105
Nc1cccc(CN2CCCC2)c1 | -8 | -9 | 104 | 107
NNC1=NC2CS(=O)(=O)CC2S1 (configuration not stated) | 7 | 25 | 101 | 103
CC1(C)Cc2ccccc2-c2nc3n(c(=O)c21)CCCS3 | -27 | -32 | 103 | 103
Cc1cc(OCC(=O)Nc2c(C)ccc3nsnc23)ccc1Cl | -1 | -14 | 104 | 102
CC(C)=CC(=O)Nc1ccc(S(N)(=O)=O)cc1 | -1 | -21 | 103 | 104
O=C(Nc1ccc(Br)cc1)c1ccc(-n2cccn2)cc1 | 7 | -47 | 100 | 102
C/C=N/N=C1/NC(=O)C(CC(=O)Nc2cccc(C)c2C)S1 (configuration not stated) | 0 | -1 | 98 | 102
CCn1c(-c2ccccc2)c(C(=O)COC(=O)/C=C/c2ccco2)c2ccccc21 | -5 | 2 | 106 | 108
CCc1cccc(NC(=O)c2cccc3c2C(=O)N(CC2CCCO2)C3)c1 (configuration not stated) | 14 | -23 | 102 | 102
Cc1cc(C(=O)OCc2cc(=O)oc3c(C)c(C)ccc23)on1 | 2 | -20 | 103 | 103
O=C(c1cc(NS(=O)(=O)c2ccc(F)cc2)ccn1)N1CCc2ccccc21 | -5 | -3 | 100 | 102
O=C(CC1CCCC1)Nc1cc2c(cc1Br)OCCO2 | 9 | 0 | 97 | 102
CN(CP(=O)(O)CN1CCOCC1)S(C)(=O)=O | nt | -19 | 105 | 109
CCC(C)NC(=O)c1ccc(-n2ccc3ccccc32)s1 (configuration not stated) | 40 | -21 | 100 | 101
O=C(O)C1(NS(=O)(=O)c2ccc(F)cc2)CCCCC1 | -13 | 3 | 101 | 108
CC(C)c1ccccc1NC(=O)/C=C/c1ccco1 | 22 | -3 | 100 | 102
N#Cc1c(-c2ccncc2)[nH]c(=S)[nH]c1=O | 2 | -8 | 101 | 101
N#CC1(C#N)C(C(N)=O)C1c1ccccc1 (configuration not stated) | -4 | 1 | 100 | 105
CSc1ncccc1C(=O)OCc1cc(=O)n2cc(C)ccc2n1 | 3 | 8 | 106 | 98
O=C(OCc1nnc(-c2ccccc2)o1)C1CCN(C(=O)c2ccc(Cl)cc2)CC1 | -11 | -30 | 101 | 106
Cc1ccc(C)c2[nH]c(=O)c(CCNC(=O)c3ccc(Br)o3)cc12 | -78 | -1 | 100 | 100
CCOC(=O)NC(c1ccccc1)C1CCCCC1=O (configuration not stated) | -6 | -7 | 101 | 99
N#Cc1ccc(CC2=C(O)CC3(CCCCC3)CC2O)cc1 (configuration not stated) | 10 | -15 | 96 | 92
CC1CCN(C(=O)CSc2ncnc3ccccc23)CC1 | 3 | -2 | 102 | 102
Cc1ccc2c(c1)-c1c(cnn1CC(=O)NC1CCCCC1C)CO2 (configuration not stated) | -11 | -7 | 102 | 109
CC(OC(=O)c1cc2ccccc2[nH]1)C(=O)NC1CC1 (configuration not stated) | 45 | -22 | 111 | 112
O=C(Nc1ccc2c(c1)OCO2)N1CCCc2ccccc21 | -1 | -6 | 103 | 102
Cc1cccc(-n2[nH]nnc2=S)c1C | 9 | 2 | 102 | 103
O=C(Oc1ccc2c(c1)OCO2)c1cccc(Cl)c1 | -5 | 1 | 106 | 115
CCN1C(C(=O)c2ccccc2)=C(OC(=O)c2ccco2)c2ccccc2S1(=O)=O | 17 | -45 | 100 | 101
Cn1c2ccccc2c2cn[nH]c(=O)c21 | 13 | -6 | 100 | 103
O=c1oc2ccccc2n1CN1CCCCC1 | -10 | -20 | 101 | 107
N=C(N)c1cccc(NC(=O)Nc2cccc(C(=N)N)c2)c1 | nt | -46 | 88* | 69*
CCc1ccccc1N(C)S(=O)(=O)c1cc(-c2cc(C)no2)ccc1OC | -12 | -32 | 103 | 102
CC(C)N1CCC(=O)N(c2ccccc2Cl)C1=O | 16 | -18 | 103 | 103
COc1cccc(C(=O)NC(=S)NCc2ccco2)c1 | 2 | 22 | 102 | 103
O=C1NCCN1CCNS(=O)(=O)c1ccc(S(=O)(=O)c2ccccc2)s1 | -3 | -5 | 102 | 100
CC1CC(C)CN(C(=O)c2cn(-c3ccccc3)nc2-c2cccs2)C1 (configuration not stated) | -6 | nt | 102 | 105
O=C1CCCC2=C1C(c1cccnc1)CC(=O)N2c1ccccc1C(F)(F)F (configuration not stated) | nt | -5 | 98 | 90
O=c1[nH]c2ccccc2[nH]1 | -1 | 8 | 94 | 95
Cc1c(Cc2ccc(F)cc2)c(=O)oc2cc(O)ccc12 | -1 | -8 | 100 | 99
Cc1ccc(C(=O)ON2C(=O)c3ccccc3C2=O)cc1 | -23 | -26 | 103 | 100
O=C(O)Cc1ccc(-n2cccc2)cc1 | -4 | -63 | 104 | 103
CNC(=S)NCc1ccc(C(=O)OC)cc1 | -12 | -21 | 102 | 95
CON(C)S(=O)(=O)c1ccc(Br)c(C(=O)OCCCn2c(=O)[nH]c3ccccc32)c1 | 9 | -3 | 111 | 110
c1ccc(C2C3=C(Nc4ncnn42)c2ccccc2CC3)cc1 (configuration not stated) | 64 | -52 | 100 | 95
CN(C)C(=S)SCC(=O)N1CCN(S(=O)(=O)c2ccc3ccccc3c2)CC1 | -13 | 1 | 108 | 114
O=S(=O)(NC1(C(F)(F)F)OCCO1)c1ccccc1 | -8 | -2 | 103 | 106
Cc1ccc(S(=O)(=O)N2C(=O)CCC2C(=O)NCc2ccco2)cc1 (configuration not stated) | -10 | -40 | 101 | 102
Cn1nc2c3ccccc3n(Cc3ccc(F)cc3)c2nc1=S | 4 | 4 | 102 | 105
O=C(O)CCc1ccc2ccccc2n1 | 7 | 9 | 99 | 106
CC1CCCC(C)N1C(=O)COc1ncnc2ccccc12 (configuration not stated) | -1 | nt | 100 | 100
CC1(C)CC(CC(=O)O)(Cc2ccccc2)CCO1 (configuration not stated) | 0 | -54 | 100 | 110

The list goes on:
SMILES | MbtI inh | MenB inh | PV pol inh | PV pol inh intensity
CN1C(CC(=O)c2ccccc2)CCC[C@H]1CC(O)c1ccccc1 (some centres not stated) | nt | -10 | 101 | 103
Cc1csc(NC(=O)CN2C(=O)COc3cc(S(=O)(=O)N4CCC(C)CC4)ccc32)n1 | 4 | 6 | 102 | 99
O=C1C=C(NCc2ccco2)CC(c2ccccc2)C1 (configuration not stated) | 4 | 0 | 102 | 107
CC(C)CC1NC(=O)N(c2ccccc2)C1=O (configuration not stated) | nt | -20 | 104 | 104
Cc1cccc(-n2c(C)nnc2SCC(=O)Nc2ccccc2C(=O)NC2CC2)c1 | -1 | -30 | 103 | 95
CCOC(=O)c1sc(C)c2c1NC(C)(c1ccccc1)NC2=O (configuration not stated) | -41 | -8 | 104 | 107
N#C/C(N=Cc1cccs1)=C(\C#N)NCc1ccccc1Sc1ccc(Cl)cc1 | 3 | -10 | 102 | 109
CCc1ccc(OCC(=O)NC(C)C)cc1 | -14 | -14 | 100 | 101
COc1ccc(-c2nc(-c3ccncc3)[nH]c(=O)n2)cc1 | -1 | -12 | 109 | 102
CC(C)C(Nc1n[nH]c(=O)[nH]c1=O)C(=O)O (configuration not stated) | 6 | 22 | 99 | 102
O=C(CC12CC3CC(CC(C3)C1)C2)n1cccn1 | -6 | 6 | 101 | 100
O=C(C1CCCN(S(=O)(=O)c2cccc3cccnc23)C1)N1CCc2ccccc21 (configuration not stated) | -12 | -9 | 102 | 106
CN(C)S(=O)(=O)c1ccc(SCc2cc3c(cc2Br)OCO3)nc1 | 20 | -24 | 101 | 110
Cc1ccc(C(O)c2nccc3ccccc23)cc1 (configuration not stated) | -7 | 0 | 103 | 104
O=C(/C=C/c1cccc(Br)c1)N1CCCC1 | 4 | nt | 103 | 105
COC(=O)c1ccccc1NC(=O)Cn1nc(C)n2cccc2c1=O | -9 | -1 | 101 | 104
COc1ccccc1OC(=O)/C=C/c1ccc(I)o1 | -3 | -20 | 104 | 110
O=S(=O)(Cc1ccc2nonc2c1)c1cccs1 | -3 | -4 | 106 | 105
O=C1NC(=O)C(=Cc2ccc(SCc3ccc(Cl)cc3)o2)C(=O)N1 | 68 | -13 | 101 | 104
O=C(CSc1n[nH]c(-c2ccccc2)n1)c1ccc(S(=O)(=O)N2CCCC2)cc1 | 26 | -31 | nt | nt

Compounds above with a COOH group, in the order listed:
SMILES | MbtI inh | MenB inh | PV pol inh | PV pol inh intensity
O=C(O)C1(NS(=O)(=O)c2ccc(F)cc2)CCCCC1 | -13 | 3 | 101 | 108
O=C(O)Cc1ccc(-n2cccc2)cc1 | -4 | -63 | 104 | 103
O=C(O)CCc1ccc2ccccc2n1 | 7 | 9 | 99 | 106
CC1(C)CC(CC(=O)O)(Cc2ccccc2)CCO1 (configuration not stated) | 0 | -54 | 100 | 110
CC(C)C(Nc1n[nH]c(=O)[nH]c1=O)C(=O)O (configuration not stated) | 6 | 22 | 99 | 102

(listing goes on)
SMILES | MbtI inh | MenB inh | PV pol inh | PV pol inh intensity
O=C1c2ccccc2C(=O)N1CCCN1CCN(CCCN2C(=O)c3ccccc3C2=O)CC1 | -4 | -23 | 102 | 101
O=C(NCc1ccco1)C1=COCCO1 | -10 | 0 | 99 | 103
N#C/C(=C(/O)CSc1ncn[nH]1)c1nc2ccccc2[nH]1 | -30 | -10 | 47 | 241
Cc1noc(C)c1/C=C/C(=O)NNc1c(F)c(F)c(F)c(F)c1F | -2 | -9 | 103 | 104
CCN(C(=N)N=C(N)N)c1ccccc1 | -10 | -10 | 100 | 100
Cc1ccc(CN2C(=O)CSC2=O)cc1 | -5 | nt | 102 | 98
CC1CN(C(=S)Nc2cccc(C(F)(F)F)c2)CC(C)O1 (configuration not stated) | -11 | -5 | 105 | 101
COC(=O)c1sc2ccccc2c1O | -52 | -8 | 107 | 116
O=C1c2ccccc2C(=O)N1CC1c2ccccc2CCN1S(=O)(=O)c1ccc2[nH]c(=O)c(=O)[nH]c2c1 (configuration not stated) | 1 | -12 | 103 | 103
NC(=O)COc1ccc(-c2nc3ccccc3s2)cc1 | -26 | -40 | 102 | 103
COc1ccccc1C1CCN(Cc2sc3ccccc3c2C)CC1 | -9 | 3 | 103 | 114
NS(=O)(=O)c1ccc(-c2ccc(/C=N/NC(=O)Cc3cccs3)o2)cc1 | -29 | -11 | 107 | 102
O=C1CSC(=O)N1CCN=Cc1c(O)n(-c2ccc(Cl)cn2)c(=O)c2ccccc12 | -3 | -10 | 88 | 221
Cc1ccc(C(=O)c2oc3ccccc3c2NC(=O)CCCN2C(=O)c3ccccc3C2=O)cc1 | nt | -4 | 104 | 113
COc1ccc(OC)c(NC(=O)c2ccc3c(c2)CCCN3S(C)(=O)=O)c1 | 18 | -2 | 103 | 104
O=C(Cn1c(-c2cccs2)cc2ccccc21)NC1CCCC1 | 61 | 4 | 101 | 104
COc1ccc(N/N=C(\C#N)C(=O)NCCc2ccc(OC)c(OC)c2)cc1 | -16 | -12 | 101 | 101
CN(C(=O)COC(=O)c1ccc(C(C)(C)C)cc1)c1ccccc1 | -16 | nt | 101 | 106
CCCSc1nc2ccccc2n1CC(=O)NCc1ccccc1OC | -5 | nt | 102 | 96
CCOC(=O)/C(=N\Nc1cccc(C(F)(F)F)c1)N(C)C1CCS(=O)(=O)C1 (configuration not stated) | 3 | -11 | 102 | 109

3 entries drawn at random from those above, as already listed:
SMILES | MbtI inh | MenB inh | PV pol inh | PV pol inh intensity
CCCSc1nc2ccccc2n1CC(=O)NCc1ccccc1OC | -5 | nt | 102 | 96
Cc1noc(C)c1/C=C/C(=O)NNc1c(F)c(F)c(F)c(F)c1F | -2 | -9 | 103 | 104
COc1ccc(N/N=C(\C#N)C(=O)NCCc2ccc(OC)c(OC)c2)cc1 | -16 | -12 | 101 | 101

Next results.
SMILES | MbtI inh | MenB inh | PV pol inh | PV pol inh intensity
CC(C)(C)NC(=S)Nc1ccc2nccnc2c1 | 9 | -17 | 102 | 104
O=C(c1ccccc1)N1CCN(C(=O)c2ccccc2)CC1 | nt | 2 | 101 | 106
CN(Cc1ccccc1)C(=O)c1ccco1 | 1 | -18 | 104 | 103
COc1ccc(CCNCc2sccc2C)cc1 | -1 | -4 | 101 | 102

Assay outcomes as filed in PubChem.
